From PubChem BioAssay
Tb hexokinase: Trypanosoma brucei hexokinase 1 inhibitors, primary screen, biochemical, G6PDH-coupled NADH absorbance, MLSCN library | recombinant TbHK1, G6PDH-coupled NADH A340 | inhibition, % at 10 µM | 0.11% of 220,000 active;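 active = inhibition of 50% or more in the single-dose primary screen; inactive = inhibition below 50%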
L929 necroptosis: inhibitors of zVAD-triggered necroptosis, primary screen, L929 cells; L929 zVAD necroptosis rescue, ATP luminescence, 24 h; with zVAD 60 µM; viability rescue, % at 10 µM; 0.38% of 220,000 active; AID 1377, 2008;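 active = activation, scaled between plate controls, above about 75%, limit read from the data; inactive = activation under that limit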;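 note: 0% = zVAD with DMSO and 100% = DMSO alone without zVAD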
14-3-3 Bad PPI: inhibitors of 14-3-3 zeta/Bad binding, primary screen, biochemical, TR-FRET, bovine 14-3-3 zeta; 14-3-3 protein zeta/delta (Bos taurus), P63103; TR-FRET 14-3-3zeta/Dy647-pBad peptide displacement, 1 h; inhibition, % at 21.7 µM; 0.71% of 220,000 active;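 active = inhibition above about 70%, limit read from the data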;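 note: 0% = full 14-3-3 plus peptide FRET controls and 100% = background without 14-3-3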
Target sequence (P63103 whole entry, looked up): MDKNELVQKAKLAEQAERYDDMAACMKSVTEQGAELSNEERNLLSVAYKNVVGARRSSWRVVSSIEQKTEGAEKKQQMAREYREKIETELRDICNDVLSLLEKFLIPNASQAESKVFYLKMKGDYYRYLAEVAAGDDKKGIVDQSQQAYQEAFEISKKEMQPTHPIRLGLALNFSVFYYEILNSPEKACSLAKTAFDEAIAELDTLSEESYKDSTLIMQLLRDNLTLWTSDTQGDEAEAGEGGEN
p47phox inh: p47phox/p22phox peptide binding inhibitors, primary screen, biochemical, uHTS, NADPH oxidase regulatory subunit. inhibition, % at 24.7 µM. 0.53% of 220,000 active. Neutrophil cytosol factor 1 (Homo sapiens), P14598. fluorescence polarization, 2 h;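 active = inhibition above about 30%, limit read from the data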;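 note: 0% = p47phox with labelled peptide and 100% = labelled peptide alone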
Target sequence (P14598 whole entry, looked up): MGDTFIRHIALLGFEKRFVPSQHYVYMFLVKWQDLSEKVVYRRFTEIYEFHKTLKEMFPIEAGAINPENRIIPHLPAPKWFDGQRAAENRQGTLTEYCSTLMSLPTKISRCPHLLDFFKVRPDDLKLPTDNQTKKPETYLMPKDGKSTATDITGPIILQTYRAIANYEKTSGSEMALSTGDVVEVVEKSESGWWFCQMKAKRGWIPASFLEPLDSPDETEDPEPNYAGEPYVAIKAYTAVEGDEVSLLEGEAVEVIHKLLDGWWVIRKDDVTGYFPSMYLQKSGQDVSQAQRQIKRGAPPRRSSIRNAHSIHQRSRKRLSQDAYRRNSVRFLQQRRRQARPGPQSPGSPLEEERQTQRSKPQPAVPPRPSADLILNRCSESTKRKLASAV
Hck-Nef inh: inhibitors of Nef-activated human Hck kinase, primary screen, biochemical, Z-Lyte FRET, 384-well, Hck-YEEI; Recombinant Hck-YEEI plus Nef, Z-Lyte FRET kinase assay; inhibition, % at 20 µM; 0.68% of 220,000 active;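 active = Hck-Nef kinase inhibition above about 50%, limit read from the data; inactive = inhibition below that limit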;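 note: 0% = DMSO with Hck plus Nef and 100% = Hck alone without Nef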
EBV gp42 inh: Epstein-Barr virus gp42 inhibitors, primary screen, biochemical, uHTS, fluorescence polarization; Glycoprotein 42 (Epstein-Barr virus (strain AG876)), Q1HVG2; Fluorescence polarization binding assay, mP read-out; inhibition, % (tested at 21.74 µM); 0.42% of 220,000 active; in the data active = inhibition above about 50%
Target sequence (Q1HVG2 whole entry, looked up): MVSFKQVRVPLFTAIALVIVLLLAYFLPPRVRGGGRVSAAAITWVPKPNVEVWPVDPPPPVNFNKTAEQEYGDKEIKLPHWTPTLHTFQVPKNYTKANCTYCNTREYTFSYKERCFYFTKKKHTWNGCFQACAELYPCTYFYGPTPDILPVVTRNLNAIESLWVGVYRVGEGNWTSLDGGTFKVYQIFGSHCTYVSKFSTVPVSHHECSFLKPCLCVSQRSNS
MDM2 E3 inh: MDM2-luciferase reporter signal enhancers, primary screen, MDM2 E3 ligase inhibitor project, cell-based, luminescence, 1536-well; signal enhancement, % at 5 µM; 0.11% of 210,000 active; cell-based MDM2 ubiquitination luciferase reporter, 2 h; 0 = plate control, 100 = twice control, blank-subtracted; AID 1230, 2008;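 active = signal enhancement of 30% or more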;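 note: luminescence tracks abundance of the self-degrading MDM2-luciferase fusion protein; higher signal means inhibition of MDM2 E3 ligase activity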
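test system = mammalian cells stably expressing self-ubiquitinating, self-degrading MDM2 E3–luciferase fusion | quantity = 2000 cells/well | incubation = cell settling 4 h, compound treatment 2 h, both 37 °C | signal = luminescence with SteadyLite reagent, 15 min at room temperature | evaluation = % enhancement relative to plate controls after blank subtraction | benchmarks = plate controls and plate blanks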
* = called active by the depositor; / = not tested or not shown; [ ] = remark or other dose. These rows are one share of the data; count on the stated rates, not on these rows.

canonical_smiles,MDM2 E3 inh,EBV gp42 inh,Hck-Nef inh,L929 necroptosis,p47phox inh,Tb hexokinase,14-3-3 Bad PPI
CCOc1ccc(NC(=O)CCSc2nnc(C)s2)cc1,-10.1,9.3,-0.9,0.1,-8.4,-0.6,-9.7
O=C(c1ccco1)N1CCN(c2nc(-c3ccc(F)cc3)cs2)CC1,-13.0,-12.5,-0.2,0.2,-20.6,-1.2,-0.2
CCCCNC(=O)NNC(=O)c1ccoc1C,9.5,-5.5,-1.5,-0.1,1.9,-0.6,13.9
O=C(NC1CCCCC1)C(c1ccc(F)cc1)N(C(=O)Cc1ccsc1)c1ccc(F)cc1 (stereo not given),-11.6,-1.2,2.0,0.0,-2.9,0.9,5.7[fluorescence artefact?]
O/N=C/c1cc(Br)ccc1OCc1cccc(F)c1,5.1,-6.9,1.8,0.2,-15.1,8.2,6.7
CC[n+]1c(/C=C/C=C/N(C(C)=O)c2ccccc2)sc2ccccc21,2.3,-166.7,4.1,-0.5,-206.1,-6.8,25.9[fluorescence artefact?]
Cc1ccc(Cn2c(SCC(=O)NCC3CCCO3)nc3c(sc4ccccc43)c2=O)cc1 (stereo not given),-12.1,-13.0,1.1,0.2,9.2,-2.5,14.9[fluorescence artefact?]
COCCNC(=O)C1CCN(S(=O)(=O)N2CCC3(CC2)OCCO3)CC1,-5.4,-12.0,1.6,0.0,-10.5,1.2,5.3

(next part)
canonical_smiles,MDM2 E3 inh,EBV gp42 inh,Hck-Nef inh,L929 necroptosis,p47phox inh,Tb hexokinase,14-3-3 Bad PPI
COc1ccc(-c2cn3c(C)c(C(=O)NC(C)C)sc3n2)cc1,-1.6,-10.5,2.0,5.1,2.1,3.7,2.4
Cc1snc(SCC(=O)N/N=C(\N)COc2cccc(C(F)(F)F)c2)c1C#N,-5.9,-0.4,0.5,0.1,6.2,-8.7,/
CC(C)(C)NC(=O)CN(Cc1cccs1)C(=O)C1COc2ccccc2O1 (stereo not given),-2.2,-14.9,1.1,-0.1,-4.8,17.7,2.3
O=C(Nc1cccn(Cc2ccc(F)cc2)c1=O)NC1CCCCC1,-1.3,-3.4,0.1,0.0,-17.0,0.1,6.2
CC1=C(/C=C/C(=O)O)C(C)(C)CCC1,1.7,-10.0,1.0,0.1,-11.9,-0.2,9.8[fluorescence artefact?]
COC(=O)c1ccc(CSc2nnc(NC(C)C)s2)cc1,-2.1,-26.1,0.1,0.9,10.7,3.2,11.8
N/C(Cc1cccs1)=N\OC(=O)COc1ccc(Br)cc1Cl,-6.9,-3.8,0.9,0.0,3.5,2.6,11.5
COC(=O)c1cc(OC)c(OC)cc1NC(=S)Nc1cccc(Cl)c1,-1.4,-6.2,-2.2,-0.6,2.6,-1.7,2.9[fluorescence artefact?]

(cont.)
canonical_smiles,MDM2 E3 inh,EBV gp42 inh,Hck-Nef inh,L929 necroptosis,p47phox inh,Tb hexokinase,14-3-3 Bad PPI
C=CCc1ccc(OCCOCCOc2ccc(C)cc2[N+](=O)[O-])c(OC)c1,-15.3,-12.6,-0.2,-0.4,-11.2,-3.0,-1.4
CCOc1ccc(Cl)cc1/C=N/O,-7.0,7.3,3.6,1.8,-4.0,-7.7,-5.8
O=[N+]([O-])c1ccc(S(=O)(=O)Nc2ccc(-c3csc(-c4ccccc4)n3)cc2)cc1,-8.1,-14.8,-1.8,1.4,-11.0,5.9,-11.2
CCN(CC)c1ccc(/C=N/N2CCN(Cc3ccc(C)cc3)CC2)c(O)c1,-15.7,-7.9,0.7,0.7,6.1,-2.6,-12.8
O=c1[nH]c(=O)n(CCOc2ccc(Cl)cc2)cc1Br,-5.9,-13.9,1.5,0.5,5.1,3.5,-1.3
CC1CCCC(C)N1CCNC(=O)Cn1nc(-c2ccccc2)ccc1=O (stereo not given),-5.7,-21.2,0.4,0.3,-9.7,0.0,-15.9
COc1cc(OC)nc(Oc2ccccc2C(=O)Oc2cccc(C)c2)n1,4.4,2.2,0.5,-0.4,2.7,-1.8,23.7
COc1cc2cc(CN(CCCO)S(=O)(=O)c3ccccc3Cl)c(=O)[nH]c2cc1OC,-14.7,-3.6,1.0,0.9,6.4,17.4,-3.5[fluorescence artefact?]

Carrying on.
canonical_smiles,MDM2 E3 inh,EBV gp42 inh,Hck-Nef inh,L929 necroptosis,p47phox inh,Tb hexokinase,14-3-3 Bad PPI
CC(O)CNCc1ccc(-c2ccccc2)cc1 (stereo not given),-5.5,-3.7,-0.6,-0.1,-11.7,-2.4,-13.6[fluorescence artefact?]
O=[N+]([O-])c1ccccc1OCCCN1CCOCC1,-16.4,5.9,2.4,0.2,-1.4,0.7,-2.0
COc1cccc(OC)c1C(=O)Nc1ccc2c3c(cccc13)CC2,7.5,-17.8,-1.6,-0.5,-7.5,2.5,5.2
CCOc1ccc(NC(=O)CSc2nnc(CCNC(=O)c3ccc(OC)cc3)n2CC)cc1,8.3,-17.7,2.6,0.5,3.8,-0.8,4.2
COc1ccc(/C=N/Nc2cc(C)nc(-n3nc(C)cc3C)n2)c(OC)c1,0.9,-0.9,-2.0,31.9,-11.6,-35.5,-3.0
COc1ccc(C(=O)Nc2n[nH]c(-c3ccncc3)n2)cc1,7.8,4.5,2.6,1.8,2.4,1.8,-9.4
CC(C)(C)NC(=O)Cn1nnc(-c2ccccc2NC(=O)c2cnccn2)n1,-13.1,-2.0,-0.6,-0.1,-3.5,-6.8,-2.1
CC1CCN(CCCNC(=O)c2n[nH]c(=O)c3ccccc23)CC1,-16.7,10.7,0.4,0.3,2.7,5.0,-8.0

(further entries)
canonical_smiles,MDM2 E3 inh,EBV gp42 inh,Hck-Nef inh,L929 necroptosis,p47phox inh,Tb hexokinase,14-3-3 Bad PPI
O=C(NNC(=O)C1COc2ccccc2O1)c1ccccc1 (stereo not given),2.9,-1.8,-2.2,-0.3,-5.8,5.3,-3.4
CC1Cc2ccccc2N1C(=S)NC(=O)c1cccc(Br)c1 (stereo not given),-3.6,8.3,7.2,0.5,-7.7,1.2,-13.4
CCCCNC(=O)NS(=O)(=O)c1cnccc1Sc1ccc(Cl)cc1,-17.3,-15.1,-0.3,0.1,-6.3,-3.7,10.9
Cc1cc(C)cc(CSCC(=O)N/N=C/c2ccc(OCC(=O)NCc3ccco3)cc2)c1,-15.6,11.1,-0.4,-0.1,15.8,-1.3,15.1[fluorescence artefact?]
O=C(Nc1nnc(-c2ccc3c(c2)CCCC3)o1)c1ccccc1,-9.1,-17.2,0.0,-0.7,-24.1,9.5,3.9
O=S(=O)(NCCNS(=O)(=O)c1cccs1)c1cccs1,-1.4,-2.8,-0.5,2.1,-3.3,21.9,2.0[fluorescence artefact?]
C=CCNC(=S)NNC(=O)c1ccc2c(c1)OCO2,-2.6,-3.4,-0.4,0.6,5.1,2.5,-3.7[fluorescence artefact?]
CCOc1ccc(-n2c(N)c(C(=O)NCC3CCCO3)sc2=S)cc1 (stereo not given),3.6,-25.1,-1.9,-0.1,-6.6,-15.3,3.0

Other records follow:
canonical_smiles,MDM2 E3 inh,EBV gp42 inh,Hck-Nef inh,L929 necroptosis,p47phox inh,Tb hexokinase,14-3-3 Bad PPI
CC(C)CNc1ncnc2c1sc1nc(N3CCOCC3)c3c(c12)CC(C)(C)OC3,-6.5,6.1,-0.5,0.0,-13.9,-9.5,1.9
FC(F)(F)c1nnc(-c2ccccc2)nc1Sc1ccc(Cl)cc1,-19.0,-11.3,-1.7,0.8,-0.8,-5.2,12.2
COc1ccc(OC)c(-n2c(-c3ccc(C)cc3)n[nH]c2=S)c1,-8.7,-22.4,0.6,0.0,-12.8,4.3,-6.6
COc1cc(CNCCO)cc(Br)c1OCc1ccccc1Cl,-12.2,-10.7,1.4,3.5,2.0,5.5,4.6
CCCN(CCC)C(=O)CSc1nc2ccccc2c(=O)n1CC1COc2ccccc2O1 (stereo not given),-2.3,-21.6,-0.6,-0.2,-9.2,-3.2,3.8
CCCNC(=O)Cn1cnc2sc(C(=O)NCCN(CC)CC)c(C)c2c1=O,-13.5,-5.3,-0.7,0.2,-2.9,-1.7,15.4[fluorescence artefact?]
S=C(NCCC(c1ccccc1)c1ccccc1)Nc1ccc(Cl)cc1,5.5,-15.7,-0.8,-0.4,-10.2,6.5,-2.1
Nc1nc(Br)c2c(F)cccc2c1-c1ccccc1,-13.4,12.3,7.1,0.0,3.1,-0.8,-16.9

Continued:
canonical_smiles,MDM2 E3 inh,EBV gp42 inh,Hck-Nef inh,L929 necroptosis,p47phox inh,Tb hexokinase,14-3-3 Bad PPI
CN(C)C(CNc1nnnn1-c1ccccc1)c1ccco1 (stereo not given),8.1,-15.1,0.9,1.1,-1.1,-3.7,8.5[fluorescence artefact?]
CS(=O)(=O)n1nc(-c2ccccc2)nc1N,-11.4,-18.5,2.8,1.1,-1.6,-1.3,-10.7
O=C(CCCn1c(=S)[nH]c2cc3c(cc2c1=O)OCO3)N1CCN(c2ccc(Cl)cc2)CC1,-30.1,-10.3,1.0,0.5,-1.8,-20.6,12.0
Cc1c(C)c2ccc(Oc3ccc([N+](=O)[O-])cc3C(F)(F)F)c(C)c2oc1=O,-34.3,-21.5,1.6,0.5,-8.6,-9.7,-3.5
NNc1nc(-c2ccccc2)cc(-c2ccccc2O)n1,-9.7,-9.9,-2.8,0.1,-19.2,4.6,9.4
Cc1ccc(C)c(C(=O)COC(=O)c2ccccc2N2C(=O)C3C4CCC(C4)C3C2=O)c1 (stereo not given),-24.8,-15.9,-0.3,0.4,-11.9,5.6,10.6
O=C(Cn1cncn1)NCc1ccccc1Br,-11.5,-9.3,-0.5,0.4,-2.6,-3.9,-6.3
O=C(CN(c1ccccc1)S(=O)(=O)c1ccccc1)NCCSc1nc2ccccc2s1,-5.8,-11.3,0.4,0.0,0.7,-2.1,-1.5
COC(=O)C1=C(CSCc2ccccc2)NC(=O)NC1c1cc(C)ccc1C (stereo not given),-26.2,-15.5,-1.4,0.1,-27.7,-6.1,1.5
CN1CCN(NC(=O)c2ccc(F)cc2)CC1,-7.9,-11.9,1.9,-0.4,-47.4,2.0,-10.3[fluorescence artefact?]

Profiles, quoted from the list:
Cc1c(C)c2ccc(Oc3ccc([N+](=O)[O-])cc3C(F)(F)F)c(C)c2oc1=O as listed: MDM2 E3 inh: -34.3; EBV gp42 inh: -21.5; Hck-Nef inh: 1.6; L929 necroptosis: 0.5; p47phox inh: -8.6; Tb hexokinase: -9.7; 14-3-3 Bad PPI: -3.5
CN1CCN(NC(=O)c2ccc(F)cc2)CC1 as listed: MDM2 E3 inh: -7.9; EBV gp42 inh: -11.9; Hck-Nef inh: 1.9; L929 necroptosis: -0.4; p47phox inh: -47.4; Tb hexokinase: 2.0; 14-3-3 Bad PPI: -10.3[fluorescence artefact?]

3 of the compounds above, with two lines to a compound.
Second line of a record: MDM2 E3 inh, EBV gp42 inh, Hck-Nef inh, L929 necroptosis, p47phox inh, Tb hexokinase, 14-3-3 Bad PPI
CS(=O)(=O)n1nc(-c2ccccc2)nc1N
    -11.4, -18.5, 2.8, 1.1, -1.6, -1.3, -10.7
O=C(CCCn1c(=S)[nH]c2cc3c(cc2c1=O)OCO3)N1CCN(c2ccc(Cl)cc2)CC1
    -30.1, -10.3, 1.0, 0.5, -1.8, -20.6, 12.0
Cc1c(C)c2ccc(Oc3ccc([N+](=O)[O-])cc3C(F)(F)F)c(C)c2oc1=O
    -34.3, -21.5, 1.6, 0.5, -8.6, -9.7, -3.5
